Screens (PubChem BioAssay)
D2 ag: human D2 receptor agonism in beta-arrestin assay. P14416. activation, % (concentration not given with the values). DiscoveRx PathHunter D2 beta-arrestin, luminescence, 90 min; 100% = 57 uM dopamine signal. 360,000 tested, 0.084% active. AID 624465; in the data active = activation above about 40%; inconclusive = about 15% to 40%; inactive = below about 15%; further: compound concentration not given in the record; the text of the record calls up to 30% inactive
Target sequence (P14416 whole entry, looked up): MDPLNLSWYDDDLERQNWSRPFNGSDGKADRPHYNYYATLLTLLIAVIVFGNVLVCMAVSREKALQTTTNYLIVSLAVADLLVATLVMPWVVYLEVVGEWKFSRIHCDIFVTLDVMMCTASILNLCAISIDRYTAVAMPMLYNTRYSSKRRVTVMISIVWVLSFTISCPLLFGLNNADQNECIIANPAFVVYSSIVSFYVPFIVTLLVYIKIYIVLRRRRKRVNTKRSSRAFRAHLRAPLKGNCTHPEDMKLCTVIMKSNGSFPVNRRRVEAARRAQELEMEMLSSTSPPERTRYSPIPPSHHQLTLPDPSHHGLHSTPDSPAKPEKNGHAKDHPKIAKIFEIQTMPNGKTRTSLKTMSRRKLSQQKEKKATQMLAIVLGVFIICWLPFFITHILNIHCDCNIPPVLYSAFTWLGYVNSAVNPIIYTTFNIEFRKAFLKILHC
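DiscoveRx PathHunter D2 beta-arrestin cells (2,100/well) attached overnight, then compound-stimulated 90 min at 37 C in HBSS/10 mM HEPES/0.1% Tween-20 buffer; beta-galactosidase complementation read by luminescence after 1 h at ambient temperature. Dopamine 57 uM final (EC100) as control.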
D2 PAM: human D2 receptor positive allosteric modulation. potentiation, % (no concentration beside the values). DiscoveRx D2 beta-arrestin cells, luminescence, 90 min; 100% = 57 uM dopamine signal. 360,000 tested, 0.23% active. P14416; active = potentiation of 50% or more; inconclusive = 30% to 50%; inactive = 30% or less;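 further: compound concentration not given in the record; tested on top of an EC20 dose of dopamine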
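PathHunter beta-arrestin assay in DiscoveRx D2 cells. Compounds were added with an EC20 of dopamine (50 nM final) for 90 min at 37 deg C. Luminescence was read 1 h after detection reagent, with 57 uM dopamine as the EC100 control.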
CtBP-E1A inh: inhibitors of CtBP/E1A interaction; AID 651724; AlphaScreen GST-E1A/His-CtBP binding, 1536-well; stronger effect = lower value; control for the full effect not named in the record; activity change, % (test concentration not listed); 340,000 tested, 0.49% active; in the data active means activity change below about -65%; inconclusive means about -30% to -65%; inactive means above about -30%; further: on the % scale 0 is the no-effect control and ±100 the full control effect; compound concentration not given in the record
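In 5 uL wells, 23 nL compound meets equimolar GST-E1A and His-CtBP (5X stock 125 nM each) for 2 h, 37 °C. Beads (5X, 50 ug/mL) then 1 h, 37 °C, dark.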
PINK1 modulator: PINK1 expression modulation. PINK1 immunofluorescence, high-content cytometry, 24 h. Potency, µM (doses to about 76.6 µM), for the others: at the top dose activation (PINK1 increase), usual class: activators. 410,000 tested, 0.2% active. AID 624263; active = well fitted activation curve with a large enough effect; inconclusive = small, poorly fitted or top-dose-only effect; inactive = flat fitted curve, though single readings scatter; cell line not stated here;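 further: potency means the concentration at half of the fitted maximal effect; % of control where 0% means no effect; nearly all actives have a fitted effect of over 65% in size; a mitochondrial uncoupler was the plate control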
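Compound titrations (5 concentrations, 24 h) on a stable cell line; DMSO and CCCP controls. Endpoint: fixed-cell PINK1 immunofluorescence with mitochondrial, cell and nuclear markers, scanned by microplate cytometer.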
Six1-Eya2 inh: blocks human Six1 binding to Eya2; Q15475+O00167; AlphaScreen GST-Six1/His-Eya2 binding, biochemical; stronger effect = lower value; control for the full effect not named in the record; activity change, % (no concentration beside the values); 360,000 tested, 0.56% active; AID 651725; in the data active = activity change below about -65%; inconclusive = about -30% to -65%; inactive = above about -30%; further: on the % scale 0 is the no-effect control and ±100 the full control effect; compound concentration not given in the record
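AlphaScreen with GST-Six1 and His-Eya2 (5X mix: 250 nM and 500 nM), glutathione donor and nickel acceptor beads; buffer 50 mM Tris pH 8.0, 300 mM NaCl, 1 mM TCEP; 1 h at 37 C in the dark.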
Sfp PPTase inh: blocks B. subtilis Sfp PPTase activity; Q9F4F7; Biochemical Sfp PPTase activity, qHTS; Potency, µM, without a hit: max response, negative = inhibition, usual class: inhibitors; 310,000 tested, 3.5% active; AID 1490; active means well fitted inhibition curve with a large enough effect; inconclusive means small, poorly fitted or top-dose-only effect, or another doubt; inactive means no such curve, though single readings can be large or run the other way;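 further: the enzyme is Sfp with the accession as filed and its product quenches rhodamine fluorescence; potency means the concentration at half of the fitted maximal effect; 0% = enzyme reaction without inhibitor and -100% = no enzyme wells; top concentration of the series not given in the record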
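Fluorescence-quenching assay with 15 nM Sfp, 5 uM rhodamine-CoA and 12.5 uM BHQ-2-labelled ybbR peptide in pH 7.6 Hepes/MgCl2 buffer. Enzyme was pre-incubated with compound for 15 min at room temperature. Rate was taken from the 30-min fluorescence change (525/598 nm).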
TRPV1 potentiator: potentiators of human vanilloid receptor 1 (TRPV1); Q8NER1; TRPV1-expressing cells, Fluo-8 calcium influx, capsaicin EC20 potentiation; host cell line not named in the record; control for the full effect not named in the record; potentiation, % at 8.33 µM; 320,000 tested, 0.02% active; active means potentiation above 80%; inconclusive means 30% to 80%; inactive means below 30%; further: 0% is about no effect
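Fluo-8 calcium influx in TRPV1-expressing cells, kinetic read (ex 480/em 520 nm). Compound added and read 3 min for agonist activity, followed by capsaicin at EC20 final and 2 min further read for enhancement.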
* marks the source's active call; other numbers are inactive results; ? = inconclusive; / = no result given; & = joins results of further samples; [ ] = remark or other dose. An unsorted share of the library; 3.7% or so of the library scored in one or more.

SMILES | D2 ag | D2 PAM | CtBP-E1A inh | PINK1 modulator | Six1-Eya2 inh | Sfp PPTase inh | TRPV1 potentiator
COc1cc2[nH]c3ccccc3c2cc1C | -0.6 | 1 | 1 | 4.2% | 2 | -10% | -2
Cc1ccc(S(=O)(=O)N2CCN(C(=O)CCn3nc(C)c(C)c3C)CC2)cc1C | -0.3 | -3 | -12 | 0.2% | 12 | 25% | 6
O=C(CCl)Nc1cccc(-c2cnc3ccccc3n2)c1 | -7.2 | -4 | 5 | -1.2% | 7 | -10% | 1
O=C(COC(=O)C1CC(=O)N(Cc2ccco2)C1)c1ccc(OC(=O)c2ccco2)cc1 (centres undefined) | -0.5 | -17 | 0 | 0.1% | ? | 13µM* | -6
COc1ccc(CN2CCC(n3nccc3NC(=O)c3ccc4c(c3)OCO4)CC2)cc1C | 2.0 | -32 | -6 | 2.7% | -5 | 11% | 22
COc1cccc(CC2(CO)CCCN(C(=O)c3cc[n+]([O-])cc3)C2)c1 (centres undefined) | -1.5 | -8 | 7 | 1.9% | 3 | 17% | 4
OCc1cn(-c2ccccc2)nc1-c1ccco1 | 1.9 | 8 | 10 | / | 0 | ? | -5
Cc1ccc(-n2c(=O)[nH]cc(C(=O)Nc3ccc4c(c3)OCCO4)c2=O)cc1 | -1.7 | -10 | 7 | -2.3% | -3 | -6% | 7
O=C(NCC1CCC(C(=O)O)CC1)OCc1ccccc1 (centres undefined) | 1.7 | -4 | -25 | 0.3% | 8 | 8% | 3
O=C(CN1CCN(S(=O)(=O)c2ccc(F)cc2)CC1)Nc1ccccc1F | -1.0 | 3 | 1 | -1.4% | -2 | -4% | -14
COc1ccccc1Sc1ccccc1/C=N/NC(N)=O | -0.3 | -2 | 5 | 8.4% | -2 | 2% | -2
COc1ccc([N+](=O)[O-])cc1NC(=O)CSc1ncccn1 | 2.0 | -6 | / | 4.5% | 14 | 18% | 3
C/C(=N\NC(=O)Cn1ccc(C(F)(F)F)n1)c1ccc(N2CCOCC2)cc1 | -1.7 | 1 | 0 | 1.1% | 4 | 3% | 4
CCC1Nc2ncnc(N3CCN(c4ccccn4)CC3)c2N(Cc2ccc(Br)cc2)C1=O (centres undefined) | -19 | -51 | -16 | 1.5% | -7 | / | /
CC1(C)CC(=O)C2=C(C1)OC(N)=C(C#N)[C@@]21C(=O)N(CC(N)=O)c2ccccc21 | 0.6 | 13 | 4 | 0.1% | 4 | -2% | 3
Cc1cccc(/C=N/NC(=O)c2ccncc2)n1 | -0.3 | -22 | / | 5.2% | ? | -8% | -4
Cc1nnc(SCCn2c(N3CCCCC3)nc3c2c(=O)n(C)c(=O)n3C)s1 | -3.0 | -5 | -14 | -2.7% | 4 | / | /
Cc1ccc(S(=O)(=O)CCC(=O)Nc2cc(Cl)ccc2-n2cncn2)cc1 | 2.9 | -6 | -7 | -2.5% | 4 | / | -6
Cc1ccc(S(=O)(=O)N(C)C)cc1NC(=O)CSc1ncc(C(F)(F)F)cc1Cl | 0.7 | -6 | -1 | -1.0% | -3 | 3% | 5
CC(=O)CSc1ncnc2sc3c(c12)CCC3 | -1.1 | -17 | 1 | -0.3% | 2 | 2% | 7
O=C(CCN1CCCCC1)c1cccc(Cl)c1 | -2.5 | -15 | 19 | 1.7% | -10 | / | /
Cc1ccc(NC(=O)c2cccc(S(=O)(=O)N3CCN(c4ccccc4)CC3)c2)nc1 | 0.1 | -5 | -14 | 3.0% | -24 | / | 26
CCc1ccc(NC(=O)c2cc(S(=O)(=O)N3CCCC3)c[nH]2)cc1 | -6.2 | -3 | -2 | 3.1% | 1 | 0% | -18
CC(C)(C)NC(=O)NC(=O)COC(=O)c1cccc(OC(F)F)c1 | -6.7 | -6 | 5 | 6.4% | 0 | -91% | 7
Cc1cc(C)c(S(=O)(=O)Cc2ccccc2)c(OC(C)C)n1 | -2.4 | -11 | 8 | -0.1% | 4 | 3% | 6
COC(=O)C1=C(C)N(c2ccc(OC)cc2)C(=O)/C1=C\c1cccs1 | -0.5 | -6 | 4 | 16% | -9 | 16% | 12
O=[N+]([O-])c1ccc2ccn(C3OCC(O)C(O)C3O)c2c1 (centres undefined) | -1.2 | 1 | -1 | 1.5% | 3 | 19% | 1
CC1(C(=O)Nc2ccc3c(c2)OCCO3)CCC(=O)N1CC(F)(F)F (centres undefined) | -4.7 | -3 | 0 | 1.0% | -3 | / | /
O=C(Nc1ccc(Cl)cc1)c1cccnc1N1CCCCC1 | -2.2 | -10 | 12 | -4.2%[38.3 µM] | 9 | 6% | 0
COc1ccc(NC(=O)CC(C)C)c([N+](=O)[O-])c1 | 1.3 | 2 | 10 | 0.4% | 25 | 5% | -14

Single records (already shown). Screens in order: D2 ag	D2 PAM	CtBP-E1A inh	PINK1 modulator	Six1-Eya2 inh	Sfp PPTase inh	TRPV1 potentiator
Entry for `COC(=O)C1=C(C)N(c2ccc(OC)cc2)C(=O)/C1=C\c1cccs1` = -0.5	-6	4	16%	-9	16%	12
Entry for `O=C(Nc1ccc(Cl)cc1)c1cccnc1N1CCCCC1` = -2.2	-10	12	-4.2%[38.3 µM]	9	6%	0

Other results
SMILES | D2 ag | D2 PAM | CtBP-E1A inh | PINK1 modulator | Six1-Eya2 inh | Sfp PPTase inh | TRPV1 potentiator
COc1ccc(S(=O)(=O)n2nc(OCc3cccs3)cc2N)cc1 | -2.6 | -5 | -1 | 1.2% | 10 | 3% | 1
Cc1ccc(N2C(=O)c3sc4nnc(C)c(=O)n4c3C2=O)cc1 | -0.9 | 3 | -10 | -0.2%[38.3 µM] | -4 | 12% | 1
O=C(NCCCN1CCOCC1)c1nn(-c2ccccc2)c(=O)c2ccccc12 | -7.2 | -16 | -21 | -0.9% | 18 | / | 3
CC(=O)N1C(C)(C)CC(=NOC(=O)c2ccc(C)cc2)CC1(C)C | ? | 67* | 12 | 6.3% | 5 | -4% | 9
NC(c1ccccc1)c1csc(NC(=O)Nc2cccc(Cl)c2)n1 (centres undefined) | 7.2 | -6 | -18 | -1.3% | -15 | / | /
Oc1ccccc1-n1nc2ccc3nonc3c2n1 | -5.8 | -7 | -2 | -1.0% | 5 | 7% | ?
N=C(N)c1ccccc1 | -3.0&-4.3 | -1&7 | -14&4 | 1.3%&1.7% | 5&2 | 12% | -17
O=C(Nc1ccc(S(=O)(=O)NC2=NCCCCC2)cc1)c1cc(S(=O)(=O)N2CCOCC2)ccc1F | 0.3 | 4 | 3 | 0.4% | 0 | 21% | -2
COc1ccc(-c2nc(CN3CCC(C(=O)NC4CCN(Cc5ccccc5)CC4)CC3)c(C)o2)cc1OC | 0.0 | -15 | 1 | 3.1% | 0 | 1% | 12
COc1ccc(C(=O)Nc2cccnc2Cl)cc1OC | -2.3 | -1 | -2 | 1.2% | -3 | 3% | 4
Cc1nn(-c2ccccc2)c(Cl)c1C(=O)Nc1c(C)n(C)n(-c2ccccc2)c1=O | -3.0 | -12 | -2 | ? | 1 | -5% | -2
Cc1ccc2nc(C)cc(N/N=C/c3ccc(F)cc3)c2c1 | 0.4 | 5 | 18 | 7.4% | 1 | 14% | -10
O=C(c1ccc(Cl)cc1Cl)N1CCSCC1 | -4.6 | -11 | 6 | 0.8% | 14 | 16% | 0
Cc1cc([N+](=O)[O-])ccc1NC(=O)c1ccco1 | -2.8 | -13 | 4 | 1.2% | -3 | 15% | 18
CC(C)(CSc1ncccn1)NS(=O)(=O)c1ccccc1 | 2.4 | -2 | 10 | -0.4% | 1 | -2% | 1

Part of the list above, field by field.
COc1ccc(-c2nc(CN3CCC(C(=O)NC4CCN(Cc5ccccc5)CC4)CC3)c(C)o2)cc1OC
- D2 ag: 0.0
- D2 PAM: -15
- CtBP-E1A inh: 1
- PINK1 modulator: 3.1%
- Six1-Eya2 inh: 0
- Sfp PPTase inh: 1%
- TRPV1 potentiator: 12

COc1ccc(C(=O)Nc2cccnc2Cl)cc1OC
- D2 ag: -2.3
- D2 PAM: -1
- CtBP-E1A inh: -2
- PINK1 modulator: 1.2%
- Six1-Eya2 inh: -3
- Sfp PPTase inh: 3%
- TRPV1 potentiator: 4

Cc1nn(-c2ccccc2)c(Cl)c1C(=O)Nc1c(C)n(C)n(-c2ccccc2)c1=O
- D2 ag: -3.0
- D2 PAM: -12
- CtBP-E1A inh: -2
- PINK1 modulator: ?
- Six1-Eya2 inh: 1
- Sfp PPTase inh: -5%
- TRPV1 potentiator: -2

Cc1ccc2nc(C)cc(N/N=C/c3ccc(F)cc3)c2c1
- D2 ag: 0.4
- D2 PAM: 5
- CtBP-E1A inh: 18
- PINK1 modulator: 7.4%
- Six1-Eya2 inh: 1
- Sfp PPTase inh: 14%
- TRPV1 potentiator: -10

Additional entries.
SMILES | D2 ag | D2 PAM | CtBP-E1A inh | PINK1 modulator | Six1-Eya2 inh | Sfp PPTase inh | TRPV1 potentiator
CCCCN(C(=O)C1CC(=O)N(Cc2ccc(C)cc2)C1)c1c(N)n(CCCC)c(=O)[nH]c1=O (centres undefined) | -5.8 | -10 | -1 | -0.4% | -3 | / | 8
COc1cccc(C(=O)C(C#N)=C(SC)SC)c1 | 4.7 | -3 | / | 1.4% | -4 | 4µM* | -5
CCc1cc(C=C(Cl)Cl)oc(=O)c1C | -0.8 | 0 | 2 | 0.0%[38.3 µM] | 3 | 11% | 5
CC(C)OC(=O)C1C2C=CC3(CN(Cc4cccs4)C(=O)C13)O2 (centres undefined) | -5.1 | 10 | 8 | -0.8% | 4 | 21% | -2
COc1cc(OC)c(OC)cc1CN1CCC(O)CC1 | -2.7 | -2 | 8 | 2.0% | 7 | -10% | 5
CC(=O)c1sc(NC(=O)CS(=O)(=O)c2ccc(F)cc2)nc1C | -6.8 | -17 | 15 | 0.4% | -9 | / | -13
COc1ccc(-n2nc(C(=O)NCC(=O)NC(C)C)c3ccccc3c2=O)cc1OC | 0.3 | -13 | / | -1.3% | 8 | 4% | -1
COc1ccc(S(=O)(=O)N2CCCOC2CNC(=O)C(=O)NCc2ccco2)cc1 (centres undefined) | 0.8 | 2 | 2 | -0.4% | 6 | -9% | -8
Cc1ccc2cc(CCNC(=O)c3cccc([N+](=O)[O-])c3)c(=O)[nH]c2c1C | -1.6 | -6 | 1 | -0.9% | -3 | -11% | 3
C#CCOC(=O)c1ccccc1C(=O)O | 0.5 | 6 | 0 | -0.1% | 4 | 13% | -1
O=C(Nc1ccccn1)c1ccc(Cl)c(S(=O)(=O)N2CCCCCC2)c1 | 3.5 | 3 | 0 | -2.6% | 2 | / | -12
